Assay outcomes (PubChem BioAssay)
GIV Gai3 FP: inhibitors of GIV GBA-motif binding to rat Galpha-i3 | Galpha-i3/FITC-GIV peptide fluorescence polarization, 90 min; hits give low values; scaled: aluminum fluoride 0%, vehicle 100% | percent of control (FP), % (concentration not given with the values) | 0.42% of 210,000 active | AID 1224905;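 active = replicate mean at 85% of control or lower, very high polarization wells dropped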;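 note: wells of about 15 µL received 100 nL stock; the first replicate is given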
Target sequence (P08753 whole entry, looked up): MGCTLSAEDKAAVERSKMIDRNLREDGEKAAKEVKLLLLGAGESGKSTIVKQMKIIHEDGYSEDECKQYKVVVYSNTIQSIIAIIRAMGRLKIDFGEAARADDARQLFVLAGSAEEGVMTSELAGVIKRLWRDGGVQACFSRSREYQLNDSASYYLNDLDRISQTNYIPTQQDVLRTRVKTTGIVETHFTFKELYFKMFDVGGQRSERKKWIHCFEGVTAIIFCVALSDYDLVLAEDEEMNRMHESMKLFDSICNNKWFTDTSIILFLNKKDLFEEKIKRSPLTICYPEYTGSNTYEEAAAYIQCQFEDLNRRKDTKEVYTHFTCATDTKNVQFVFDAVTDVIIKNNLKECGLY
HCMV UL50-53 inh: disrupts HCMV UL50-UL53 complex binding. HTRF UL50-UL53 interaction, normalized percent inhibition. inhibition, % (no concentration beside the values). 0.15% of 190,000 active. AID 1918969;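 active = both replicates at 50% or more, plus weaker picks with an unusually low signal ratio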;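 note: stock transfer was 100 nL into about 20 µL; 0% = negative control wells and 100% = wells with untagged competitor protein; inactives centre near -12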
Sa growth inh: S. aureus growth inhibition. S. aureus RN4220 growth, OD600, 20 h, 42 °C; hits give low values. relative growth, % (test concentration not listed). 0.53% of 170,000 active. AID 720641;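 active = growth at 42 °C up to 50% and 20 or more points under that at 30 °C, or under 10% at both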;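 note: 300 nL library stock went into each well; scaled to the means of positive and negative controls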
Sa growth inh second temp: recorded beside Sa growth inh, whose call it bears; relative growth, %; measured here: growth at 30 °C;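 optical density after 20 h as mean of two plates; 100% = untreated growth and lower means inhibition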
Active calls of the source: *; nt = not tested or not shown. This is a random part of the collection, and some 0.83% of all compounds hit somewhere here.

Letter code: A = GIV Gai3 FP; B = HCMV UL50-53 inh; C = Sa growth inh; D = Sa growth inh second temp
Cc1cccc(N2CCN(CCNC(=O)CCc3nnc4n(CCCOC(C)C)c(=O)c5ccccc5n34)CC2)c1C
  A: 104.3	B: -3.0	C: 101.0	D: 98.1
CCCNC(=O)Cc1csc(NC(=O)c2ccccc2)n1
  A: 105.8	B: -27.5	C: nt	D: nt
COc1ccc(Cn2c(CO)cnc2SCC(=O)NCc2ccco2)cc1
  A: 100.6	B: nt	C: 80.5	D: 92.0
c1ccc(Sc2ncnc3c2sc2ncccc23)cc1
  A: 107.7	B: 1.7	C: 84.3	D: 91.8
Cc1nc2sc(C(=O)Nc3ccc(F)cc3)c(N)c2c(-c2ccc(Br)cc2)c1C(=O)Nc1ccc(Cl)cc1
  A: 104.7	B: -10.7	C: 101.5	D: 93.5
COc1ccc(C2CC(=O)N(c3ccc(C)cc3)C(=O)C2)cc1OC
  A: 96.1	B: -23.6	C: nt	D: nt
C=CCNC(=S)N/N=C1\C=C(C)CC(C)(C)C1
  A: nt	B: -26.6	C: 119.6	D: 93.6
CC(C(=O)NCc1ccco1)n1nc(-c2ccccc2)c2cc(Cl)ccc21 (stereo unspecified)
  A: 101.6	B: -15.6	C: 97.9	D: 81.8
Cc1cc(=O)n2[nH]c(NC(=O)c3ccc(C(C)(C)C)cc3)nc2n1
  A: 101.1	B: -12.2	C: 97.8	D: 87.0
CCOc1ccc(NC(=O)c2cc3c(s2)-c2ccccc2OC3)cc1
  A: 103.9	B: -5.6	C: 116.2	D: 96.2
O=C(CSc1nc2ccccc2c(=O)n1Cc1ccccc1)N1CCCC1
  A: 97.8	B: 3.7	C: 96.8	D: 81.2
O=c1sc2ccccc2n1Cc1nnc(-c2ccccc2)o1
  A: 92.1	B: 19.3	C: 86.8	D: 87.2
COc1ccccc1N(Cc1nc2nc(C)cc(=O)n2[nH]1)S(=O)(=O)c1ccc(Cl)cc1
  A: 103.1	B: -25.0	C: nt	D: nt
Cc1ccc(C(C)NC(=O)CCCc2nc(-c3cc4cc(C)ccc4[nH]c3=O)no2)cc1 (stereo unspecified)
  A: 104.5	B: 2.2	C: nt	D: nt
COc1ccc(-c2nc3ccccc3o2)cc1NC(=O)COc1c(C)cc(Cl)cc1Cl
  A: 103.9	B: -16.8	C: 107.7	D: 98.6
COc1ccc2c(c1)CC(C1(O)C(=O)N(C)c3ccccc31)C2=O (stereo unspecified)
  A: 106.7	B: 0.4	C: 91.3	D: 86.6
COc1ccc(C2C(C(=O)N3CCN(c4ccccc4)CC3)CCC(=O)N2c2ccc(OC)cc2)cc1 (stereo unspecified)
  A: 101.2	B: -19.0	C: nt	D: nt
O=C1c2ccccc2C(=O)C1C1c2ccccc2Oc2ccccc21
  A: 100.7	B: -77.0	C: 89.6	D: 76.1
O=C(COC(=O)c1ccccc1C(=O)c1ccccc1)c1ccc(Cl)cc1
  A: 104.3	B: 5.1	C: 106.0	D: 91.8
COc1ccc(OC)c(CCNC(=O)C2=C(C)C(=O)OC23CCC(C)CC3)c1 (stereo unspecified)
  A: 106.2	B: -2.9	C: 97.2	D: 89.8
CCOC(=O)CC1=CC(SCC(=O)c2cc(C)ccc2C)=Nc2ccccc2N1
  A: 104.2	B: -28.4	C: nt	D: nt
CN(C(=O)CSc1nc2c(c(=O)[nH]1)CCCC2)c1ccccc1
  A: 100.3	B: 2.4	C: 111.5	D: 84.9
Cc1ccc(-c2nc(N)n(C(=O)C3CC3)n2)cc1
  A: 105.3	B: -26.0	C: nt	D: nt
Cc1c(C2CCN(S(C)(=O)=O)CC2)c2ccccc2n1Cc1ccc(Cl)cc1
  A: 105.1	B: -32.7	C: nt	D: nt
CC(C)NC(=O)CCCN1C(=O)c2ccccc2C1=O
  A: 101.4	B: -15.4	C: 100.1	D: 91.7
CCCCNC(=O)Cn1ncc2c(C)n(Cc3cccc(Cl)c3)c(C)c2c1=O
  A: 101.4	B: -24.2	C: 103.8	D: 82.2
Cc1ccc(NC(=S)N(CCC#N)C2CCCCC2)cc1
  A: 101.6	B: -28.7	C: 95.8	D: 97.1
CC(C)c1cc(C(=O)Nc2cccnc2)no1
  A: 100.0	B: nt	C: 103.0	D: 86.7
Oc1ccc(Br)cc1C=Nc1ccc2n[nH]nc2c1
  A: 104.5	B: nt	C: 99.2	D: 80.2
O=S(=O)(Cc1ccccc1)NC(c1ccccc1)c1nnc(-c2ccccc2)o1 (stereo unspecified)
  A: 106.8	B: -37.9	C: 108.8	D: 93.2
CN(C)c1ncc2c(n1)CC(c1ccc(C(C)(C)C)cc1)CC2=O (stereo unspecified)
  A: 102.8	B: 3.2	C: 98.9	D: 87.3
CCN(CC)c1ccc(Nc2nc(-c3cccs3)cs2)cc1
  A: 104.4	B: nt	C: 87.2	D: 81.4
O=C(O)CSc1n[nH]c(-c2cccs2)n1
  A: 98.3	B: 21.0	C: 102.0	D: 94.3
CCOC(=O)c1c(NC(=O)c2onc(C)c2Cl)sc(C)c1C
  A: 108.0	B: 1.3	C: 87.8	D: 85.4
CC(C)CCCNc1nc(N2CCOCC2)nc(N2CCOCC2)n1
  A: 101.5	B: -21.3	C: 87.5	D: 75.0
Cc1cccc(NC(=O)Cn2c(=O)cc(C(=O)NCc3ccccc3)c3ccccc32)c1C
  A: 106.5	B: -22.5	C: nt	D: nt
COc1ccc(C)cc1NC(=O)CC(=O)Nc1ccc2nc3n(c(=O)c2c1)CCCCC3
  A: 112.2	B: 2.4	C: 106.4	D: 95.5
CCc1cc(C(=O)O)on1
  A: 99.3	B: -23.0	C: 101.4	D: 77.3
COc1cccc(-c2ccc(SCc3nc(-c4ccc(OC)cc4OC)no3)nn2)c1
  A: 107.7	B: -10.0	C: nt	D: nt
Cc1ccccc1-c1ccc(N2CCCC(C(=O)NC3CCCC3)C2)nn1 (stereo unspecified)
  A: 96.2	B: -0.4	C: nt	D: nt
O=S(=O)(c1ccc(Br)s1)N1CCN(c2cccc(C(F)(F)F)c2)CC1
  A: 103.3	B: -15.9	C: 83.5	D: 85.1
Cc1c(C(=O)N2CCCC2)oc2c1-c1nn(CC(=O)N3CCC(Cc4ccccc4)CC3)cc1CC2
  A: 105.7	B: -18.5	C: nt	D: nt
CCn1c(C)cc(C(=O)O)c1C
  A: nt	B: 3.0	C: 102.1	D: 100.1
Cn1c(O)c(N=O)c2ccccc21
  A: 114.3	B: -94.3	C: 115.6	D: 93.4
O=C1NC(=Nc2ccccc2)/C(=C/c2cccs2)S1
  A: 88.4	B: -0.3	C: 118.9	D: 106.3
CC1CC(C)CN(S(=O)(=O)c2ccc(C(=O)NCCCn3ccnc3)cc2)C1 (stereo unspecified)
  A: nt	B: -1.8	C: 104.8	D: 86.1
CNC(=O)c1ccccc1-c1nc(-c2ccc(Cl)cc2)no1
  A: 101.0	B: -13.5	C: 88.6	D: 94.7
COc1cc(/C=c2/sc3nc4cc(C)c(C)cc4n3c2=O)cc(Br)c1OCc1ccccc1
  A: 106.5	B: -17.2	C: nt	D: nt
NC(=O)CCN1CCCC1C(N)=O (stereo unspecified)
  A: nt	B: -15.6	C: 93.8	D: 95.6
C=C1C[C@@]23CC[C@H]4[C@@](C)(CCC[C@@]4(C)C(=O)OC4OC(CO)C(O)C(O)C4O)[C@@H]2CC[C@]1(OC1OC(CO)C(O)C(O)C1OC1OC(CO)C(O)C(O)C1O)C3 (stereo partly specified)
  A: 100.4	B: -14.3	C: nt	D: nt

The list continues:
Letter code: A = GIV Gai3 FP; B = HCMV UL50-53 inh; C = Sa growth inh; D = Sa growth inh second temp
COc1ccc(-c2nn(CCCC(=O)N3CCN(c4ccccc4)CC3)c(=O)c3noc(C)c23)cc1
  A: 97.8	B: 10.1	C: nt	D: nt
COCCOC(=O)C1=C(C)N=C2SCCC(=O)N2C1c1ccc(OCc2ccccc2)c(OC)c1 (stereo unspecified)
  A: 104.7	B: -27.3	C: 88.6	D: 89.9
O=C(CCNC(=O)c1ccccc1Cl)NC1=NCCS1
  A: nt	B: -6.9	C: 106.1	D: 99.0
CSc1nnnn1-c1cccc2ccccc12
  A: 105.7	B: 0.5	C: 115.4	D: 103.5
COc1ccc(NC(=O)CN2C(=O)COc3ccc(S(=O)(=O)Nc4ccccc4)cc32)cc1
  A: 106.6	B: nt	C: 71.0	D: 70.5
CC1=CC(C)(C)N(C(=O)CN2C(=O)c3ccccc3C2=O)c2ccccc21
  A: 100.1	B: nt	C: 110.7	D: 92.0
CSc1ccc(CCNC(=O)c2cc3cc(S(=O)(=O)N4CCCCC4)ccc3n2C)cc1
  A: 98.2	B: nt	C: 100.4	D: 91.8
Cc1nn(-c2ccccc2)c2nc(-c3ccccc3)ccc12
  A: nt	B: -33.5	C: 121.5	D: 93.7
CN(CCO)C(=O)c1cccc2c1-c1ccccc1C2=O
  A: 106.1	B: -72.1	C: 112.2	D: 92.5
CCOC(=O)c1noc2ncnc(NC3CCCCC3)c12
  A: 103.1	B: -28.9	C: nt	D: nt
Cc1nc2ccc(N=Cc3ccc(Br)cc3)cc2s1
  A: 98.5	B: nt	C: 105.5	D: 87.9
O=C(C(Cc1ccccc1)NS(=O)(=O)c1cccc2nsnc12)N1CCN(c2ccccn2)CC1 (stereo unspecified)
  A: 97.5	B: -119.6	C: nt	D: nt
O=C(NCc1ccccc1)c1cccc(Cn2c(=O)c3cccn3c3cccnc32)c1
  A: 104.5	B: 0.8	C: nt	D: nt
CC(C)CCNc1nnnc2c1sc1nc(N3CCOCC3)c3c(c12)CCCC3
  A: 109.2	B: nt	C: 106.5	D: 93.2
NC(=O)COC(=O)Cc1c(Cl)cccc1Cl
  A: nt	B: 19.0	C: 87.3	D: 98.7
C=CCNS(=O)(=O)c1ccc(N2C(=O)C(C)CS2(=O)=O)cc1 (stereo unspecified)
  A: 105.6	B: -1.9	C: nt	D: nt
CCC(=O)Nc1ccc(C(=O)COc2ncnc3ccccc23)cc1
  A: nt	B: -20.2	C: 98.8	D: 88.5
CCOC(=O)c1c(NC(=O)c2ccc(C)cc2)sc(C(=O)Nc2ccccc2C(F)(F)F)c1C
  A: 99.7	B: -13.5	C: nt	D: nt
COc1ccc(C)cc1NC(=O)NC1CCCCC1C (stereo unspecified)
  A: 104.1	B: -25.3	C: 102.5	D: 95.1
BrCCc1nc(CCBr)n(Cc2ccccc2)n1
  A: 102.7	B: -15.1	C: 96.5	D: 86.1
Cc1cc(C(=O)COc2ncnc3sccc23)c(C)n1C
  A: nt	B: -12.5	C: 96.7	D: 90.7
CC(CCc1ccccc1)NCc1ccco1 (stereo unspecified)
  A: nt	B: -6.7	C: 113.9	D: 79.0
Cc1cc(=O)n(CC(=O)Nc2cccc([N+](=O)[O-])c2)c(-n2nc(C)cc2C)n1
  A: 101.1	B: nt	C: 119.7	D: 71.2
CC1CCCC(C)N1C(=O)CCC(=O)O (stereo unspecified)
  A: nt	B: 2.6	C: 103.2	D: 103.0
COc1cc(SC)ccc1C(=O)Nc1cccc(-c2nncn2C)c1
  A: 106.6	B: 15.0	C: 96.7	D: 96.7
O=C(NCc1ccccn1)OCC(F)(F)F
  A: nt	B: -11.7	C: 107.9	D: 102.9
CCOC(=O)Cc1c(C)[nH]c(C(=O)OCC)c1CC(=O)OCC
  A: 105.8	B: -4.7	C: 116.8	D: 91.5
Cc1[nH]c(C)c(S(=O)(=O)Nc2ccc(Cl)cc2)c1C(=O)N1CCCC1
  A: 100.3	B: -11.9	C: nt	D: nt
Cc1n[nH]c(=O)c(C#N)c1C
  A: nt	B: -60.9	C: 96.9	D: 89.6
CCOC(=O)c1cc(-c2cccs2)nc2ccccc12
  A: 98.1	B: -7.7	C: 64.5	D: 65.3

Reformatted as labelled records: entries from further up.
> O=C(NCc1ccccn1)OCC(F)(F)F
  GIV Gai3 FP: nt	HCMV UL50-53 inh: -11.7	Sa growth inh: 107.9	Sa growth inh second temp: 102.9

> CCOC(=O)Cc1c(C)[nH]c(C(=O)OCC)c1CC(=O)OCC
  GIV Gai3 FP: 105.8	HCMV UL50-53 inh: -4.7	Sa growth inh: 116.8	Sa growth inh second temp: 91.5

> Cc1[nH]c(C)c(S(=O)(=O)Nc2ccc(Cl)cc2)c1C(=O)N1CCCC1
  GIV Gai3 FP: 100.3	HCMV UL50-53 inh: -11.9	Sa growth inh: nt	Sa growth inh second temp: nt

> Cc1n[nH]c(=O)c(C#N)c1C
  GIV Gai3 FP: nt	HCMV UL50-53 inh: -60.9	Sa growth inh: 96.9	Sa growth inh second temp: 89.6

Some of the entries so far, with values under each structure.
The line under a structure holds: GIV Gai3 FP, HCMV UL50-53 inh, Sa growth inh, Sa growth inh second temp
- Cc1[nH]c(C)c(S(=O)(=O)Nc2ccc(Cl)cc2)c1C(=O)N1CCCC1
→ 100.3, -11.9, nt, nt
- CCOC(=O)Cc1c(C)[nH]c(C(=O)OCC)c1CC(=O)OCC
→ 105.8, -4.7, 116.8, 91.5
- Cc1n[nH]c(=O)c(C#N)c1C
→ nt, -60.9, 96.9, 89.6
